# Compound activity as filed in PubChem BioAssay.
# Cruzain Triton – blocks cruzain activity in presence of Triton detergent; P25779; purified cruzain, Z-FR-AMC fluorescence, 0.01% Triton; Potency, µM, for inactives: max response, negative = inhibition, actives largely listed as inhibitors; actives 0.43% (n = 200,000);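 note: plate controls were neutral wells for no effect and buffer without enzyme for full effect; nearly all actives have a fitted effect of over 40% in size; top concentration of the series not given in the record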
# Target sequence (P25779 123-467 limits assumed): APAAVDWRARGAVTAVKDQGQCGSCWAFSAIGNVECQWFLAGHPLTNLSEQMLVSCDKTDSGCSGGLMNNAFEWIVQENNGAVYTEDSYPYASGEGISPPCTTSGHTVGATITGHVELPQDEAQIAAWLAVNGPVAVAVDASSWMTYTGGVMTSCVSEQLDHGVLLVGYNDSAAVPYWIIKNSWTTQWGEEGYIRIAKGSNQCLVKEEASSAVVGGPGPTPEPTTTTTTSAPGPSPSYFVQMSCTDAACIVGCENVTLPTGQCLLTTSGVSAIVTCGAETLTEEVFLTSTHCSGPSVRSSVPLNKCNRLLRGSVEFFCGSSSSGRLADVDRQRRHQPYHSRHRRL
#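 In this qHTS format, compounds are incubated with 1.5 nM cruzain for 15 min at room temperature before 2 uM Z-FR-AMC is added. Release of AMC is followed at 360/450 nm, and progress is taken as the 60 s fluorescence difference.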
# NS1 function inh – influenza NS1 inhibition; Potency, µM (titrated, usually from 46.1 µM), for inactives: at the highest dose activity, positive = more growth; actives 0.4% (n = 270,000); S. cerevisiae slowed by influenza A NS1, growth recovery by OD600; active means well fitted rising curve with a large enough effect; inconclusive means small, poorly fitted or top-dose-only effect; inactive means no such curve, though single readings can be large or run the other way; note: nearly all actives have a fitted effect of over 50% in size
#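 OD600 was taken as the measure of yeast growth restored by compound in an NS1-expressing S. cerevisiae strain. Cells had been washed out of glucose medium and diluted 1:100 into galactose -URA medium, pH 6.0.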
# Lassa entry inh – Lassa virus entry inhibition | actives 1.2% (n = 300,000) | Potency, µM (top dose mostly 37.9 µM), inactives show at the highest dose activity change, negative = inhibition, actives largely listed as inhibitors | Lassa virus pseudotype entry inhibition, cell reporter; control for the full effect not named in the record | AID 540256; active means well fitted inhibition curve with a large enough effect; inconclusive means small, poorly fitted or top-dose-only effect, or effect the other way; inactive means flat fitted curve, though single readings scatter; tested in HEK293 cells; note: % is set by controls: 0 for no effect and ±100 for the full control effect; nearly all actives have a fitted effect of over 50% in size; luciferase read-out
# 2A StopGo – FMDV 2A StopGo reporter, luciferase signal | human cells with a luciferase reporter of 2A StopGo recoding; control for the full effect not named in the record | Potency, µM (highest dose often 57.9 µM), inactives show at the highest dose signal change, negative = less light | actives 1.2% (n = 410,000) | AID 1159524; active = well fitted falling curve with a large enough effect; inconclusive = small, poorly fitted or top-dose-only effect; inactive = no such curve, though single readings can be large or run the other way; tested in HEK293T cells; note: % is set by controls: 0 for no effect and ±100 for the full control effect; nearly all actives have a fitted effect of over 45% in size; luciferase light after 4 h
# RE007 growth inh – less growth of the S. pombe RE007 Vpr strain. S. pombe RE007 Vpr strain, BacTiter-Glo ATP luminescence, 24 h; control for the full effect not named in the record. AID 651644. Potency, µM (highest dose often 92.2 µM), for inactives: top-dose activity change, negative = less growth. actives 0.21% (n = 360,000); active = well fitted falling curve with a large enough effect; inconclusive = small, poorly fitted or top-dose-only effect; inactive = no such curve, though single readings can be large or run the other way;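 note: % is set by controls: 0 for no effect and ±100 for the full control effect; nearly all actives have a fitted effect of over 50% in size; the assay follows cell death caused by Vpr and the record does not say whether a fall means rescue or toxicity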
#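 Fission yeast strain RE007, carrying one chromosomally integrated HIV-1 vpr copy, was seeded at OD 0.01 in PMG+AL medium with 23 nL pinned compound. After 24 h at 30 °C and 99% humidity, viability was read by BacTiter-Glo luminescence.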
# Cruzain inh noDet – inhibitors of Trypanosoma cruzi cruzain without detergent; P25779; Potency, µM, without a hit: max response, negative = inhibition, hits mostly inhibitors; actives 2.3% (n = 200,000); purified cruzain, Z-FR-AMC fluorescence, no detergent;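 note: plate controls were enzyme without inhibitor for no effect and buffer without enzyme for full effect; nearly all actives have a fitted effect of over 40% in size; top concentration of the series not given in the record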
#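 Purified cruzain at 1.5 nM, pre-incubated 15 min with compound at room temperature in 100 mM sodium acetate pH 5.5, 5 mM DTT, 0.00005% Triton X-100. Reaction started with 2 uM Z-FR-AMC; AMC fluorescence increase over 60 s gives rate.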
# SARS PLpro yeast – inhibitors of SARS-CoV papain-like protease in yeast; S. cerevisiae expressing SARS-CoV PLpro, growth rescue; control for the full effect not named in the record; Potency, µM (titrated, usually from 32.9 µM), for inactives: at the top dose activity, positive = growth rescue; actives 0.19% (n = 330,000); AID 485353; active means well fitted rising curve with a large enough effect; inconclusive means small, poorly fitted or top-dose-only effect; inactive means no such curve, though single readings can be large or run the other way; note: 0% is about no effect; nearly all actives have a fitted effect of over 55% in size; growth read by luminescence after 48 h
# Marburg entry inh – inhibitors of Marburg virus binding or cell entry; Marburg virus pseudotyped entry inhibition, cell reporter; control for the full effect not named in the record; about a third of the inactives were read at about 46 µM; actives 1.8% (n = 300,000); AID 540276; Potency, µM (titrated, usually from 37.8 µM), inactives show top-dose activity change, negative = inhibition, hits mostly inhibitors; active = well fitted inhibition curve with a large enough effect; inconclusive = small, poorly fitted or top-dose-only effect, or effect the other way; inactive = flat fitted curve, though single readings scatter; tested in HEK293 cells; about a fifth of its hits are not listed in these tables; note: % is set by controls: 0 for no effect and ±100 for the full control effect; luciferase read-out
# * hit, by the source's call; ? = inconclusive; . = not tested or not shown; & = joins results of further samples; [ ] = dose if it differs, or a comment. Unless noted, calls come from the whole dose curve; as a rule, active = well fitted curve in the direction sought with a large enough effect; inconclusive = small, poorly fitted or top-dose-only effect, or another doubt; inactive = no such curve, though single readings can be large; an effect the other way counts as inactive or inconclusive. Potency is the fitted concentration of half-maximal effect. Compounds were not picked by outcome. Share with any hit: about 4.7%.
SMILES,Cruzain Triton,NS1 function inh,Lassa entry inh,2A StopGo,RE007 growth inh,Cruzain inh noDet,SARS PLpro yeast,Marburg entry inh
CCC1Oc2ccc(C)cc2N(CC(=O)NCCN2C(C)CCCC2C)C1=O (stereo not given),-0.3%,-18%,-13%,.,-1%,3%,4%,?
CCOC(=O)c1[nH]c(C)c(C(=O)NCc2ccccn2)c1C,1.9%,-19%,?,1%,-6%,-6%,3%,6%
CC(C)n1cc(/C=C(\C#N)S(=O)(=O)c2ccccc2)c2ccccc21,2.8%,?,-12%,4%,5%,-27%,0%,?
CCCNc1c(NS(=O)(=O)c2ccc(NC(=O)CC)cc2)c(=O)oc2ccccc12,.,2%,.,-27%,6%,.,4%,.
CC/C(=C\C1CCCCC1)C(NP(=O)(c1ccccc1)c1ccccc1)c1ccccc1 (stereo not given),-9.4%,21%,?,?,1%,2%,-46%,-38%
O=C(O)CCCC(=O)Nc1ccc(Br)cc1,-0.8%,5%,0%,-7%,-4%,0%,6%,-11%
COC(=O)c1sccc1N/N=C(\C)c1ccc(F)c(Cl)c1,-3.3%,-4%,10%,-14%,1%,20µM*,1%,-6%
Nc1nnc(CC(=O)N2CCCCC2)s1,4.7%,0%,3%,6%,2%,3%,4%,17%
CCc1ccc(CN2CCC(Oc3ccc(C(=O)N4CCCC4)cc3)CC2)cc1,.,-4%,-25%,-14%,-10%,.,7%,-21%
O=C(NCc1ccc2c(c1)OCO2)c1ccc(Cl)nc1,.,8%,0%,7%,-1%,.,1%,14%[46.1 µM]
CCOc1ccc(CCNC(=O)CSc2cc(=O)n(C)c3ccccc23)cc1OCC,-1.0%&-0.6%,-6%,?,-8%&6%,-8%,?,-1%,?
Cc1nc(-c2ccccc2)sc1CCNS(=O)(=O)c1ccccc1,-8.2%,.,?,41%[activator],.,-8%,.,.
COc1cc(OC)c(C(=O)C=Cc2ccc(OC)c(OC)c2)c(OC)c1,.,.,?,?,5%,.,.,?
Cc1cccc(Nc2nn3c(=O)c4ccccc4nc3s2)c1,2.8%,7%,-1%,80%[activator],-2%,3%,3%,?
Cn1c2ccccc2c(=O)c2ccc(-c3ccc4c(c3)OCO4)cc21,.,-4%,.,-1%,-6%,.,-7%,.
FC(F)Oc1ccccc1NC(=S)NCCc1ccccc1,.,.,-1%,15%,23%,.,.,-15%[46.1 µM]
COc1ccc(Cl)cc1-c1nc(SCC(=O)N(C)CCC#N)n[nH]1,.,.,-1%[46.1 µM],?,10%,.,0%,-4%[46.1 µM]
CCC(=O)N1CCc2cc(S(=O)(=O)CCC(=O)NCCc3ccc(S(N)(=O)=O)cc3)ccc21,.,-2%,.,-6%,13%,.,5%,.
CCOc1ccc(S(=O)(=O)NCCC(=O)N(C)CC(=O)Nc2ccc(OC)cc2)cc1,.,2%,11%,15%,-8%,.,-4%,-10%
CCN(CC)CC(=O)NCC1(c2ccccc2)CCCC1,.,-2%,22%,-4%,-2%,.,0%,-22%[46.1 µM]
Cc1ccccc1CNC(=O)CN(c1cccc([N+](=O)[O-])c1)S(C)(=O)=O,.,0%,.,-1%,-1%,.,4%,.
CCOC(=O)N1CCc2c(sc(NC(=O)CN3CCN(C)CC3)c2C(=O)Nc2ccccc2)C1,.,.,24%,5%,-9%,.,-1%,?
Nc1nc2ccccc2cc1S(=O)(=O)c1ccccc1,.,.,-9%,-17%,-14%,.,-4%,-3%[46.1 µM]
Cc1ccc(CNC(=O)CN(c2ccc(C(C)C)cc2)S(=O)(=O)c2c(C)noc2C)cc1,.,13%,.,-12%,3%,.,0%,.
COc1cc(OC)cc(C(=O)Nc2cc(-c3cn4cccnc4n3)ccc2C)c1,.,7%,-7%,7%,-6%,.,0%,-1%
CN(CC(=O)Nc1ccc(Cl)cc1)C(=O)CCc1ccccc1,.,-4%,13%[46.1 µM],-9%,7%,.,-1%,13%[46.1 µM]
Cc1cccc(-n2c(N)c(C(=O)N3CCN(C)CC3)sc2=S)c1,-1.8%,4%,22%,-7%,-2%,-22%,-3%,10%
CC(C)CNC(=O)N1CCN(S(=O)(=O)c2ccc3c(ccn3C)c2)CC1,-3.2%,.,11%[46.1 µM],-4%,.,7%,.,.
N#Cc1ccccc1Cn1c(=O)n(-c2ccccc2)c(=O)c2c3c(sc21)CCC3,-2.8%,.,-11%[46.1 µM],-20%,.,10%,.,-10%[46.1 µM]
CCCC(=O)N1CC2(C)CN(C(=O)CCC)CC(CCC)(C1)C2=O,2.7%,2%,13%,-6%,6%,1%,.,4%
COc1cc(/C=N/NC(N)=S)ccc1OCc1ccc(C)cc1,2.2µM*,19%,?,21%,2%,1µM*,?,?
O=C(c1ccc(OC2CCN(C/C=C/c3ccccc3)CC2)cc1)N1CCCCC1,.,12%,-31%,-3%,-19%,.,5%,?
O=C(c1cc2cc(F)ccc2[nH]1)N1CCN(c2cccc(Cl)c2)CC1,.,-3%,.,0%,-4%,.,0%,.
CC1=NN(c2ccccc2)C(=O)C1C(=O)C(=O)Nc1ccc(F)cc1 (stereo not given),.,.,10%[46.1 µM],-8%,-13%,.,-5%,?
O=C(c1ccccc1)N1N=C(c2ccccc2O)CC1c1ccc(Br)cc1 (stereo not given),.,-2%,.,-22%,-7%,.,1%,.
O=C(NCC1CCCO1)/C(=C\c1ccc(Cl)cc1)NC(=O)c1ccccc1 (stereo not given),3.1%,-6%,-24%,-11%,-14%,-6%,2%,?
O=C(Nc1nc(-c2ccccc2)cs1)c1cccc([N+](=O)[O-])c1,-2.6%,3%,9%,-18%,6%,?,2%,-19%
Cn1c(O)c(/C=C2\C=Nc3ccc(Br)cc32)c(=O)n(C)c1=O,.,-2%,6%[46.1 µM],-11%,0%,.,4%,19%[46.1 µM]
Cc1ccc(Cn2c(SCCN3CCCCC3)nc3c2c(=O)[nH]c(=O)n3C)cc1,-3.8%,-20%,1%,0%,-7%,-2%,8%,1%
Cc1cccc(NC(=O)CCc2c(C)nc3nc(CNC(=O)c4cccc(F)c4)nn3c2C)c1,-5.6%,.,-6%[46.1 µM],-13%,.,15%,.,12%[46.1 µM]
CCC(=O)N1CCc2cc(S(=O)(=O)CCC(=O)Nc3ccc(F)c(F)c3)ccc21,-2.9%,-8%,-6%,2%,3%,0%,9%,-8%&10%
CCC(c1nc2ccccc2c(=O)n1CCCn1ccnc1)N1C(=O)c2ccccc2C1=O (stereo not given),-2.0%,-8%,10%,.,-13%,-6%,-4%,5%
CCC(C)NC(=O)CSc1nc(-c2cccs2)cc(C(F)(F)F)n1 (stereo not given),-2.1%,4%,-8%,.,-4%,7%,-3%,-24%
CCOC(=O)C(O)(c1ccc(N=c2ccccn2C)cc1)C(F)(F)F (stereo not given),.,-4%,6%,-9%,-5%,.,-1%,0%
COc1cccc(CN2CCNC(=O)C2CC(=O)N(C)CCC2CCOCC2)c1OC (stereo not given),.,-4%,4%,10%,-8%,.,2%,15%
Cc1ccc(S(=O)(=O)c2cc3cc(Br)ccc3oc2=O)cc1,-1.1%,10%,-26%,?,0%,-2%,13%,-7%
Cc1c(C(=O)NCc2ccccc2)oc2c1-c1[nH]ncc1CC2,-5.5%,.,-16%[46.1 µM],21%,.,8%,.,-23%[46.1 µM]
Cc1ccnc(NC(=O)COC(=O)C2COc3ccccc3O2)n1 (stereo not given),6.3%,-3%,-4%,44%[activator],-1%,1%,4%,-1%
Cc1c(CN2CC[C@@H](N3CCN(c4ccccn4)CC3)[C@H](O)C2)[nH]c2ccc(F)cc12,.,-38%,.,?,1%,.,-10%,.
CCc1ccc(NC(=O)Nc2cccc(OC)c2)cc1,.,.,-3%[46.1 µM],16%,4%,.,-1%,?
Cn1c(=O)c2c(n3c4ccccc4nc13)NC(=O)CC2c1cccc(F)c1 (stereo not given),-0.5%,.,-4%[46.1 µM],-22%,.,9%,.,.
CC(=O)c1c(C)nc2ccc(Cl)cn12,5.4%,2%,-1%,24%,-2%,-7%,1%,10%[46.1 µM]
O=C(NCc1ccccc1)c1ccc(=O)[nH]n1,5.6%,5%,?,-14%,6%,-2%,4%,-1%
O=C(NCC1CCCN1S(=O)(=O)c1cccs1)c1ccccc1F (stereo not given),.,.,-1%[46.1 µM],1%,-13%,.,4%,-5%
CS(=O)(=O)N1CCC(Oc2ccccc2C(=O)NC2CCCCCC2)CC1,.,1%,1%[46.1 µM],2%,-19%,.,-2%,0%[46.1 µM]
COc1ccccc1CNC(=S)Nc1ccc(S(N)(=O)=O)cc1,.,5%,0%[46.1 µM],-4%,4%,.,-3%,?
COc1cc(/C=N/Nc2ccc(Cl)c(C(=O)O)c2)ccc1OC(=O)c1ccc(F)cc1,.,4%,?,-22%,-5%,.,-1%,-32%[46.1 µM]
O=c1c2ccccc2c(C=NCc2ccccn2)c(O)n1-c1ccccc1Cl,.,.,5%,-20%,-4%,.,4%,4%[46.1 µM]
O=C1CC(Cc2ccc(Cl)cc2)C(=O)N1c1ccncc1 (stereo not given),-2.1%,-9%,-17%,-24%,-25%,-5%,2%,4%
O=C(CCc1ccccc1)Nc1cc(NC(=O)CCc2ccccc2)cc(C(=O)O)c1,.,11%,1%[46.1 µM],10%,12%,.,1%,?

# Carrying on.
SMILES,Cruzain Triton,NS1 function inh,Lassa entry inh,2A StopGo,RE007 growth inh,Cruzain inh noDet,SARS PLpro yeast,Marburg entry inh
CCOC(=O)N1CCC(NC(=O)c2c(C)nn(-c3ccc(C)cc3)c2-n2cccc2)CC1,-20%,.,1%[46.1 µM],-30%,.,1%,.,.
Cc1cc(C)cc(NC(=O)C2CCN(C(=O)c3cccs3)CC2)c1,.,-19%,-2%[46.1 µM],6%,-11%,.,2%,-25%[46.1 µM]
CCCn1c(N)c(C(=O)CSc2nnnn2-c2ccc(O)cc2)c(=O)n(C)c1=O,2.8%,5%,?,-29%,4%,?,-2%,4%
C=C(C)CSc1nnc(-c2ccc(C)cc2)n1N,5.5%,0%,4%,-11%,4%[3.69 µM],4%,2%,0%
Cc1ccc(Cl)cc1N1CCN(C(=O)c2sc3nc4n(c(=O)c3c2C)CCC4)CC1,-2.1%,.,-14%[46.1 µM],-13%,.,14%,.,.
O=C1CC(SC(=NCc2ccc3c(c2)OCO3)Nc2ccccc2)C(=O)N1 (stereo not given),-5.1%,-21%,7%,-9%,2%,4%,7%,-4%
